HIV TAR-Tat – TAR RNA-Tat peptide displacers, HIV-1, primary screen, biochemical, FRET, FAM/TAMRA-labeled Tat; HIV-1 TAR RNA, Tat peptide displacement FRET; stronger effect = higher value; z-score (test concentration not listed); actives 0.6% (n = 100,000); AID 1259389, 2018;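 further: score is relative to mean and SD of negative controls; some compounds called inactive have numbers as strong as hits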
CDC25B-CDK2 inh – primary biochemical HTRF screen for blockers of M-phase inducer phosphatase 2 binding to CDK2/cyclin A; P30305+P24941; HTRF CDC25B-CDK2/CyclinA binding, anti-His/anti-Flag; stronger effect = higher value; z-score (concentration not given with the values); actives 0.72% (n = 94,000); AID 1259370, 2018;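 further: score is relative to mean and SD of negative controls; strong numbers were not always called active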
Active calls of the source: *.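 How the source made its calls: active means z-score from 3 up in half or more of its runs; inactive means the rest.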

`O=C(COc1ccc(Cl)cc1)N1CCN(Cc2ccc3c(c2)OCO3)CC1` gave HIV TAR-Tat -0.67.
O=C1NN=C(c2ccc(Cl)cc2)CC1c1c[nH]c2ccccc12 (configuration not stated) was read as HIV TAR-Tat 2.15 and CDC25B-CDK2 inh -1.53.
COc1ccccc1OCC(=O)Nc1nnc2n1CCCS2 was read as HIV TAR-Tat 0.75.
For CCCC(=O)Nc1ccc(-n2cccc(C(=O)NC3CCCC3)c2=O)cc1 the results were HIV TAR-Tat 1.91.
`CCN(CC)C(=O)c1oc2ccccc2c1NC(=O)C(C)Oc1ccccc1` (configuration not stated) gave HIV TAR-Tat -0.16.
CCc1ccc2cc(-c3ccc(Cl)cc3)cn2c1 was read as CDC25B-CDK2 inh -1.22.
For Cc1nnc2sc(SCC(=O)N3CCN(c4ccccc4)CC3)nn2c1=O the results were HIV TAR-Tat 1.48.
For O=C1NC2(CCCCCC2)Oc2ccccc21 the results were CDC25B-CDK2 inh -1.19.
O=C1CC2(CCCC2)CC(=O)N1CCNCC1COc2ccccc2O1 (configuration not stated) was read as HIV TAR-Tat -1.04.
O=C(Nc1nc(-c2ccccc2)cs1)c1ncn[nH]1 was read as CDC25B-CDK2 inh 0.1.
Screening c1csc(CNc2nn3nnnc3c3ccccc23)c1 returned HIV TAR-Tat 2.19 and CDC25B-CDK2 inh -2.66.
`COc1ccc(-c2onc(C)c2C)cc1S(=O)(=O)NCc1ccc(C)cc1` gave HIV TAR-Tat 0.96.
CN1C(=O)C(C)(C)c2cc(S(=O)(=O)N(C)CC(=O)N3CCOCC3)ccc21 was read as HIV TAR-Tat 0.84.
`CCOC(=O)c1c(C)n(C)c2ccc(OC(=O)COc3ccccc3)cc12` gave CDC25B-CDK2 inh 1.5.
Cc1cccn2c(=O)c3cc(C#N)c(=O)n(CC4CCCO4)c3nc12 (configuration not stated) was read as HIV TAR-Tat 1.06 and CDC25B-CDK2 inh -1.99.
COc1ccc(OCc2nc(-c3ccncc3)no2)cc1 was read as HIV TAR-Tat 1.18 and CDC25B-CDK2 inh -1.5.
For Cc1nn(C)c(C)c1CNC(=O)c1[nH]nc2c1COc1ccccc1-2 the results were HIV TAR-Tat 1.43.
Screening C=CCNc1nc(Cl)nc(Nc2ccc(OCC)cc2)n1 returned HIV TAR-Tat 1.74 and CDC25B-CDK2 inh -0.2.
CN(C)CCNC(=O)c1c(-c2ccccc2)c(-c2ccccc2)nn(C)c1=O was read as HIV TAR-Tat 0.82 and CDC25B-CDK2 inh -0.64.
Screening COc1ccc(N2CCN(c3cc(C(=O)O)c4cc(N)ccc4n3)CC2)cc1 returned HIV TAR-Tat -1.22.
`COc1ccc(CNc2nc3c(S(=O)(=O)c4ccc(C)cc4)nnn3c3ccsc23)cc1` gave HIV TAR-Tat -0.17.
`O=C(COc1nsnc1N1CCOCC1)NCC1CCCO1` (configuration not stated) gave HIV TAR-Tat -0.5.
Screening Cc1nc2nc(C)c(CCC(=O)O)c(C)n2n1 returned HIV TAR-Tat 0.2 and CDC25B-CDK2 inh -1.2.
For CCCc1cc(=O)n2nc(N3CCC(C(=O)N4CCN(CC)CC4)CC3)sc2n1 the results were HIV TAR-Tat 16.9 and CDC25B-CDK2 inh -0.28.
`COc1ccc(Cl)cc1C(=O)Nc1nc(-c2ccc(Cl)cc2Cl)cs1` gave CDC25B-CDK2 inh -4.04.
`CSc1nc(C)cc(NC(N)=O)n1` gave HIV TAR-Tat -0.47 and CDC25B-CDK2 inh -0.13.
For CC1=C(c2ccc(C(C)C)cc2)S(=O)(=O)N=C1Nc1ccccc1F the results were HIV TAR-Tat -1.19 and CDC25B-CDK2 inh -1.7.
Screening CCOC(=O)c1c(C)[nH]c(C)c1S(=O)(=O)NCC(=O)N1CCN(C)CC1 returned HIV TAR-Tat 1.39.
Screening Cn1ccc2cc(S(=O)(=O)N3CCN(C(=O)Nc4cc(F)ccc4F)CC3)ccc21 returned HIV TAR-Tat 0.42.
Screening CCCN1CCc2nc(N3CCN(c4ccccc4F)CC3)ncc2C1 returned HIV TAR-Tat -0.35.
`Cc1ccc(-c2nc(N)n(C(=O)c3ccc(C(C)(C)C)cc3)n2)cc1` gave HIV TAR-Tat 1.86 and CDC25B-CDK2 inh -0.97.
Screening O=C(Nc1ccccc1C(=O)Nc1ccccn1)c1ccccc1 returned CDC25B-CDK2 inh -1.13.
`Cc1ccnc(N2C(=O)c3ccccc3C2Nc2ccc3c(c2)OCCO3)c1` (configuration not stated) gave HIV TAR-Tat 1.07 and CDC25B-CDK2 inh -0.63.
Screening Cn1c(CN2CCOCC2)nc2cc(NC(=O)c3ccco3)ccc21 returned HIV TAR-Tat 0.51 and CDC25B-CDK2 inh -2.48.
`CN1CCN(Cn2c(O)c(N=NC(=O)COc3cccc4ccccc34)c3ccccc32)CC1` gave CDC25B-CDK2 inh -0.86.
`CCc1nnc(SCC(=O)Nc2ccc(OC)c(OC)c2)c2cc3oc(C)cc3n12` gave HIV TAR-Tat 1.35.
`O=C(c1ccc2c(c1)nc1n2CCCC1)N1CCOCC1` gave HIV TAR-Tat 0.89.
For O=C(CSc1nc2ccc([N+](=O)[O-])cc2[nH]1)c1ccc2ccccc2c1 the results were CDC25B-CDK2 inh -2.4.
Screening CCC(CO)N1CCn2c(nc3cccc(Cl)c32)C1 (configuration not stated) returned HIV TAR-Tat -0.13 and CDC25B-CDK2 inh -1.99.
Screening CN(C)c1ccc(C(O)c2nc3ccccc3n2Cc2ccccc2)cc1 (configuration not stated) returned HIV TAR-Tat 1.66 and CDC25B-CDK2 inh -2.53.

Reprinted from the part before: seven compounds, then new ones.
Screening Cn1c(CN2CCOCC2)nc2cc(NC(=O)c3ccco3)ccc21 returned HIV TAR-Tat 0.51 and CDC25B-CDK2 inh -2.48.
`CN1CCN(Cn2c(O)c(N=NC(=O)COc3cccc4ccccc34)c3ccccc32)CC1` gave CDC25B-CDK2 inh -0.86.
`CCc1nnc(SCC(=O)Nc2ccc(OC)c(OC)c2)c2cc3oc(C)cc3n12` gave HIV TAR-Tat 1.35.
`O=C(c1ccc2c(c1)nc1n2CCCC1)N1CCOCC1` gave HIV TAR-Tat 0.89.
For O=C(CSc1nc2ccc([N+](=O)[O-])cc2[nH]1)c1ccc2ccccc2c1 the results were CDC25B-CDK2 inh -2.4.
Screening CCC(CO)N1CCn2c(nc3cccc(Cl)c32)C1 (configuration not stated) returned HIV TAR-Tat -0.13 and CDC25B-CDK2 inh -1.99.
Screening CN(C)c1ccc(C(O)c2nc3ccccc3n2Cc2ccccc2)cc1 (configuration not stated) returned HIV TAR-Tat 1.66 and CDC25B-CDK2 inh -2.53.
COc1cccc(C2Nc3cc(C)c(C)cc3NC3=C2C(=O)CC(C)(C)C3)c1O (configuration not stated) was read as HIV TAR-Tat -3.11 and CDC25B-CDK2 inh -0.04.
O=C1OC(Nc2ccc(Cl)cc2)c2ccccc21 (configuration not stated) was read as HIV TAR-Tat -0.73 and CDC25B-CDK2 inh -0.16.
Screening CCc1nnc2c(C)nc3ccccc3n12 returned HIV TAR-Tat -0.76.
Screening CN(C)CCCOC(=O)c1cnn2c(C(F)(F)F)cc(-c3ccc(F)cc3)nc12 returned HIV TAR-Tat 1.92 and CDC25B-CDK2 inh -0.99.
`CCCCCCOc1ccc(N2C(=O)CC(SCCN)C2=O)cc1` (configuration not stated) gave HIV TAR-Tat 0.91 and CDC25B-CDK2 inh -0.4.
For COCCCn1nnc2cc(S(=O)(=O)N3CCCCC3C(=O)O)ccc21 (configuration not stated) the results were HIV TAR-Tat 1.62 and CDC25B-CDK2 inh -0.06.
For c1cncc(Cc2nnc(N3CCN(Cc4ccc5c(c4)OCO5)CC3)c3ccccc23)c1 the results were HIV TAR-Tat 1.44 and CDC25B-CDK2 inh -1.65.
For COc1ccc(C2Nc3ccccc3NC3=C2C(=O)CC(c2cccs2)C3)cc1OC (configuration not stated) the results were HIV TAR-Tat 1.77.
Screening O=C(NCCO[N+](=O)[O-])c1cccnc1 returned HIV TAR-Tat 0.74.
Screening O=C(CN1C(=O)CCSc2ccccc21)NC1CCCC1 returned HIV TAR-Tat 0.06 and CDC25B-CDK2 inh -0.84.
For Nc1ccccc1SCc1cc([N+](=O)[O-])cc2c1OCOC2 the results were CDC25B-CDK2 inh 0.15.
Screening Cn1cc(CCC(=O)NCc2ccccn2)c2ccccc21 returned HIV TAR-Tat 1.16.
For COC(=O)C(CCSC)NC(=O)Cn1ncc2c(=O)oc3ccccc3c21 (configuration not stated) the results were HIV TAR-Tat 2.02 and CDC25B-CDK2 inh -1.66.
For CC1(C)CC(=O)C2=C(C1)c1c(ccc3ccccc13)NC2c1ccc(O)c(O)c1 (configuration not stated) the results were HIV TAR-Tat 0.72 and CDC25B-CDK2 inh -1.67.
O=C1/C(=C\c2ccc(O)c(O)c2)Oc2c1ccc(O[C@@H]1O[C@H](CO)[C@@H](O)[C@H](O)[C@H]1O)c2O was read as HIV TAR-Tat 16.1*.
For O=C(CSCCc1ccccn1)Nc1ccc(Br)cn1 the results were HIV TAR-Tat 0.9.
COc1ccc(NC(=O)C2=CC(c3cccs3)=NS(=O)(=O)N2C)cc1 was read as HIV TAR-Tat 3.06 and CDC25B-CDK2 inh -2.48.
COc1ccccc1-c1coc2cc(OC(=O)c3ccco3)ccc2c1=O was read as HIV TAR-Tat 0.39 and CDC25B-CDK2 inh 1.31.
Screening O=C(C1COc2cc(S(=O)(=O)NCc3ccco3)ccc2O1)N1CCCCC1 (configuration not stated) returned HIV TAR-Tat 0.49.
Screening Cc1nonc1NC(=O)C1COc2ccccc2O1 (configuration not stated) returned HIV TAR-Tat -0.43 and CDC25B-CDK2 inh -1.34.
Screening COc1cc(C(=O)c2ccccc2C#N)cc(OC)c1OC returned CDC25B-CDK2 inh 1.82.
`CC(=O)Nc1ccc(S(=O)(=O)Nc2cc(S(=O)(=O)N(C)C)ccc2C)cc1` gave CDC25B-CDK2 inh 1.61.
`Cn1c(C(=O)O)cc2cc(S(=O)(=O)N3CCCCC3)ccc21` gave HIV TAR-Tat -0.69 and CDC25B-CDK2 inh 0.3.
O=C(NCCCN1CCCC1)C1CCCN(c2nn3c(=O)c4c(nc3s2)CCCC4)C1 (configuration not stated) was read as HIV TAR-Tat 1.84.
`CCOc1nc(-c2ccccc2)ccc1-c1noc(-c2cccnc2)n1` gave HIV TAR-Tat -0.68 and CDC25B-CDK2 inh -1.09.
`O=C(Oc1cccc(-n2cnnn2)c1)c1ccccc1Br` gave HIV TAR-Tat -1.01 and CDC25B-CDK2 inh -1.31.
COc1cccc(NS(=O)(=O)c2ccc(-n3cccn3)cc2)c1 was read as HIV TAR-Tat 0.39.
Screening CCOC(=O)c1cc(S(=O)(=O)N(C)CC(=O)NC2CCCCC2)cn1C returned HIV TAR-Tat 0.95.
Screening Fc1ccc(-n2ncc3c(Nc4ccccc4)ncnc32)cc1 returned HIV TAR-Tat 1.45.
`Cc1cc(-c2ccc(S(=O)(=O)Nc3ccc(Cl)cc3F)s2)n[nH]1` gave HIV TAR-Tat -0.51.
For O=C(NCc1ccco1)Nc1cnc2ccccn2c1=O the results were HIV TAR-Tat -0.34 and CDC25B-CDK2 inh -0.87.
`CCN1CCN(c2ncnc3onc(-c4ccccc4C)c23)CC1` gave HIV TAR-Tat 1.36.
Screening CCc1ccc(-c2cc(C)no2)cc1S(=O)(=O)NCCCc1ccccc1 returned HIV TAR-Tat 1.1.
For COc1ccc(-n2nnc(-c3nc(-c4ccc5c(c4)OCO5)no3)c2N)cc1 the results were HIV TAR-Tat 0.4.
For O=C(CCc1nnc2ccc(N3CCCCC3)nn12)Nc1ccccn1 the results were HIV TAR-Tat 0.16.
Screening CCCS(=O)(=O)c1c(S(=O)(=O)CCC)c2ccccn2c1C(=O)c1ccc(C)cc1 returned HIV TAR-Tat 0.05 and CDC25B-CDK2 inh 0.18.
Screening CCCN(C(=O)c1noc2c1CSc1ccccc1-2)c1ccc(F)cc1 returned HIV TAR-Tat -0.69 and CDC25B-CDK2 inh -0.03.
`O=c1nc2c(-c3cccc(Cl)c3)n[nH]n2c2ccc(Cl)cc12` gave HIV TAR-Tat 1.19 and CDC25B-CDK2 inh -2.03.
CCN(CC)CCNC(=O)C(=O)c1c(C)n(C)c2ccccc12 was read as CDC25B-CDK2 inh -0.73.
Screening COc1ccc(-c2noc(-c3nnn(-c4cc(C)ccc4OC)c3C)n2)cc1OC returned HIV TAR-Tat 0.69.
Screening CCOC(=O)c1cnn2c1nc(Sc1cccc(OC)c1)c1ccccc12 returned CDC25B-CDK2 inh -0.58.
Screening COc1ccc(C2COc3c(ccc(O)c3OC)C2)c(OC)c1OC (configuration not stated) returned HIV TAR-Tat 2.03.
Screening CCCCOc1ccc(S(=O)(=O)NCc2cn3ccsc3n2)cc1 returned CDC25B-CDK2 inh -1.23.
COc1ccc(C2=C(C)C(=O)NS2(=O)=O)cc1 was read as HIV TAR-Tat 1.45 and CDC25B-CDK2 inh 0.54.
For CC1(C)CS(=O)(=O)N(c2ccc(C(=O)NCc3ccc4c(c3)OCO4)cc2)C1=O the results were HIV TAR-Tat 1.19 and CDC25B-CDK2 inh -0.27.
Screening CNc1ccccc1C(=O)NN returned CDC25B-CDK2 inh -1.28.
For CCCCCOc1ccc(C2CC(=O)CC(=O)C2C(=O)OCC)cc1 (configuration not stated) the results were HIV TAR-Tat 1.28 and CDC25B-CDK2 inh -0.44.
For O=C(c1ccccc1)N1CCN(Cc2cc(=O)n3[nH]c(-c4ccccc4)nc3n2)CC1 the results were HIV TAR-Tat 1.93.
For CCCC12CN3CC(C)(CN(C1)C3c1ccc([N+](=O)[O-])o1)C2=O (configuration not stated) the results were HIV TAR-Tat -0.65 and CDC25B-CDK2 inh -2.58.
For COc1ccc(Nc2nc(Nc3ccc(OC)c(Cl)c3)c3cnn(C)c3n2)c(OC)c1 the results were HIV TAR-Tat 1.43.
CCOCCCNC(=O)CN1C(=O)c2ccccc2S1(=O)=O was read as HIV TAR-Tat 1.58 and CDC25B-CDK2 inh 0.01.

Screening results: PubChem BioAssay, Center for Chemical Genomics, University of Michigan
